Screening data from PubChem.
Vif TR-FRET – HIV-1 Vif–A3G interaction blockers – biochemical, TR-FRET, GST-Vif 1-94, biotin-A3G peptide, dose response retest, primary screen (AID 1117319). TR-FRET GST-Vif / biotin-A3G peptide binding; higher % means a stronger effect; test concentration not given here; strong numbers were not always called active. inhibition, %, or IC50 in µM where a hit was titrated. 260,000 tested, 0.57% active;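 active = above the screen mean plus three standard deviations and confirmed in dose response; inconclusive = results disagree or hit not tested in dose response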;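 also: Vif residues 1-94 fused to GST binding biotinylated APOBEC3G peptide 110-148; 0% = full assay without inhibitor and 100% = GST in place of GST-Vif; retest series ran down from 100 µM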
AF4-AF9 inh – inhibitors of human MLL-AF4/AF9 interaction; inhibition, % at 10 µM; P42568; 350,000 tested, 0.47% active; AlphaScreen, biotin-AF4 peptide binding to FLAG-AF9;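 active = every replicate reaching a set inhibition limit, whatever the replicate mean, cut at about 25% in these data; inconclusive = mean inhibition reaches that limit but some replicates miss it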;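 also: 0% = plate neutral control median and 100% = total signal loss; the record names both 10 and 1 µM as test concentration; the first replicate is given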
HNF4A DNA FP – change in binding of human HNF4 alpha to DNA; P41235; HNF4a-FITC DNA binding, fluorescence polarization, 1 h; activity change, % at 10 µM; 360,000 tested, 0.3% active; AID 1224865; in the data active = activity change above about 30%, passing the limit was not always enough;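 also: controls were the assay level and a saturating level of protein; the project sought stronger binding though the title names inhibitors; some compounds called inactive have numbers as strong as hits; positive values seem to mean higher polarization but the record does not say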
Target sequence (P41235 whole entry, looked up): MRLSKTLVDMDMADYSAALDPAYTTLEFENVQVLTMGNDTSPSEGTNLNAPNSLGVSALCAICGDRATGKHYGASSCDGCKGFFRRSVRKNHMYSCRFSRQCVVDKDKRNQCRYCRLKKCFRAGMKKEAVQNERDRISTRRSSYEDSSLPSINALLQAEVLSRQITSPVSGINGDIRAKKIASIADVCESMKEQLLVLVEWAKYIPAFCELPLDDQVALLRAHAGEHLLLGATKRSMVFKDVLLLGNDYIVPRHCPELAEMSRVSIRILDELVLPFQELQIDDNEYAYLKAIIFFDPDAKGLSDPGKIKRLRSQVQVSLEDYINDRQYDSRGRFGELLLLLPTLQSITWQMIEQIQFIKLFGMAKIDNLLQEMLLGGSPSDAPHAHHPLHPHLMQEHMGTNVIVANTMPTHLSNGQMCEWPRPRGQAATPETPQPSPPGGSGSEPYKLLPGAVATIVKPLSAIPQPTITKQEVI
rRNA inh HTS – selective bacterial rRNA inhibition in E. coli; GFP signal change (wild-type ribosome), % (no concentration beside the values); E. coli WT GFP vs humanized-ribosome RFP mutants, fluorescence, 24 h; active compounds read low; DMSO median 0, no signal -100; 350,000 tested, 1.6% active;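 active = significant combined selectivity score with lowered wild-type GFP, culture density cut under 30%, mutant RFP and density less affected; inactive = any of these conditions unmet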; also: one replicate is shown; some compounds called inactive have numbers as strong as hits
E coli growth – E. coli growth inhibition; Escherichia coli growth, OD600, 23 h; active compounds read low; OD600 absorbance (no concentration beside the values); 330,000 tested, 0.21% active;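 active = OD600 absorbance below the run mean of sample wells minus 3.6 SD, in any replicate, cut at about 0.56 in these data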;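 also: stock transfer was 300 nL into about 60 µL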
ALR H2O2 inh – blocks human ALR sulfhydryl oxidase activity. purified ALR, DTT oxidation, H2O2 HRP-luminol luminescence. 290,000 tested, 3.8% active. inhibition, % (concentration not given with the values). AID 485317;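 active = mean and each replicate at 75% or more; inconclusive = only one of the two met; inactive = neither met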;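 also: stock transfer was 7.5 nL into about 7.5 µL; 0% = neutral wells and 100% = wells with inactivated enzyme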
Target sequence (P55789 whole entry, looked up): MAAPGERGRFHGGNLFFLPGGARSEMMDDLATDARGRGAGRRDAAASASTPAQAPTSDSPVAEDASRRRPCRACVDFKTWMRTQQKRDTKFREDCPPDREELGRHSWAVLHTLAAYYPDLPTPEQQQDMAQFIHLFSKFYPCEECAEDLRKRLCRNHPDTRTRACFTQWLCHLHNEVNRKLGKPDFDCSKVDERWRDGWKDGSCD
FGF22 binding – shifts melting point of recombinant human FGF22. 340,000 tested, 1.5% active. recombinant FGF22 thermal shift, SYPRO orange fluorescence; percent of sucrose octasulfate shift, DMSO zero. Q9HCT0. calls only at 9.99 µM;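 active = melting point raised past a set limit in the mean and every replicate; inconclusive = no clear call; three in four hits are not shown here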
Target sequence (Q9HCT0 whole entry, looked up): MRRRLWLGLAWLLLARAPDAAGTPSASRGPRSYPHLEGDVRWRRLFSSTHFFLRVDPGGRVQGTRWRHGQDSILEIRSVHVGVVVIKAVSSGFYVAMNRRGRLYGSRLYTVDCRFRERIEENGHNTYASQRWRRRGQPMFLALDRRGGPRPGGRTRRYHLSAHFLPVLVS
rRNA inh HTS OD600 – second read-out of rRNA inh HTS, no call of its own (marks repeat the call); OD600 change, %; measured here: OD600 growth;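 optical density of the mix in the first replicate; 0 = DMSO median and -100 = no signal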
rRNA inh HTS RFP – also measured in rRNA inh HTS; calls as there; RFP signal change, %; measured here: RFP humanized mutant strains;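 first replicate; 0 = DMSO median and -100 = no signal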
Active calls of the source: *; i = inactive; ? = inconclusive; . = not tested or not shown; & = joins results of further samples.

Values in the order – Vif TR-FRET, AF4-AF9 inh, HNF4A DNA FP, rRNA inh HTS, rRNA inh HTS OD600, rRNA inh HTS RFP, E coli growth, ALR H2O2 inh, FGF22 binding
CCOC(=O)Cn1c(=NC(=O)CSC(C)=O)sc2cc(F)ccc21
    -48.2%, -4.5, 5.8, 5.7, 13.6, -2.2, 0.648, ., i
CCN(CC(=O)NC1CCS(=O)(=O)C1)c1ccc(S(=O)(=O)N(CC)CC)cc1[N+](=O)[O-] (stereo not drawn)
    ., 1.1, 0.6, 1.3, 6.7, 1.0, 0.676, ., i
Cn1c(N)c(C(=O)CCl)c(=O)n(Cc2ccccc2)c1=O
    65.9%, ., 1.3, 8.9, 7.6, -1.6, 0.795, 99.1*, i
CCN1/C(=C/c2sc(-c3ccccc3C)c[n+]2C)Sc2ccccc21
    2.9%, 3.3, 1.4, -53.9, -77.0, -18.1, 0.621, ., i
CCCc1ccc(Oc2c(-c3ccc(O)c(C)c3O)n[nH]c2C)cc1
    5.4%&-3.5%, ., -0.3, ., ., ., 0.712, 18.2, .
C[C@@H]1CN([C@H](C)CO)C(=O)c2cc(-c3ccc(C#N)cc3)cnc2O[C@H]1CN(C)C(=O)c1ccccc1
    6.3%, 0.1&-3.1&-2.0, -0.5, -0.1&-4.0, -7.3&0.2, -11.0&-2.8, ., ., i
CCN(C(=O)CSc1nnc(SC)s1)c1c(N)n(Cc2ccccc2)c(=O)[nH]c1=O
    2.9%, 1.1, 2.7, ., ., ., 0.714, ., i
Cn1c(C(=O)N2CCN(c3ccc(F)cc3)CC2)cc2ccccc21
    ., 4.8, 3.7, -30.5, -30.1, -0.9, 0.699, -27.3, i
N/C(=N\OS(=O)(=O)c1ccc2ccccc2c1)c1ccncc1
    -2.0%, ., 0.3, ., ., ., 0.732, ., .
O=C(NCC1CCN(C(=O)C(=O)c2cccs2)CC1)c1ccc2c(c1)CCO2
    ., 0.5, ., 4.0, 0.2, 1.5, ., ., i
COc1ccc2cc3cc(C(=O)NCCC(C)C)oc3nc2c1
    7.3%, -32.6, 4.8, 10.0, 10.8, 1.2, 0.659, 4.5, i
CCOC(=O)NC1CCc2cc(OC)c(OC)c(OC)c2-c2ccc(SC)c(=O)cc21 (stereo not drawn)
    3.9%, 1.8, -1.1, 4.6, 2.8, 1.4, ., ., i
O=S(=O)(c1cccc(-c2cn3cc(Cl)ccc3n2)c1)N1CCOCC1
    ?, ., -1.0, ., ., ., 0.742, 32.5, .
Cc1ccc(C(C(=O)NC2CCCC2)N(Cc2ccc(F)cc2)C(=O)c2snc(C(N)=O)c2N)o1 (stereo not drawn)
    ., 5.3, 1.7, 4.3, -16.4, 2.7, 0.701, -5.0, i
Cc1cccc(S(=O)(=O)CC(=O)Nc2nc(-c3ccccc3)cs2)c1
    -1.2%, ., 0.9, ., ., ., 0.728, ., .
CS(=O)(=O)c1ccc(-c2nnc(NC(=O)c3cccc(N4C(=O)CCC4=O)c3)o2)cc1
    1.2%, -2.0, 4.8, 1.7, -1.1, 0.1, 0.627, -5.3, i
COC(=O)COc1ccccc1C(N)=O
    2.6%, ., 0.2, 6.9, 11.5, -0.7, 0.707, -8.6, .
Cc1nc(C(C)NC(=O)c2cc(COc3ccc(C)c(C)c3)on2)c(C)s1 (stereo not drawn)
    ., -1.1, 4.4, 23.7, 25.7, 4.8, 0.732, 3.4, i
Cc1nc(C)c(-c2csc(NCc3ccccc3)n2)s1
    -2.4%, ., -1.8, ., ., ., 0.653, 47.9, .
CCOC(=O)N1CCN(Cc2nc(Cc3cccc(F)c3)no2)CC1
    2.4%, -1.7, 2.2, ., ., ., 0.675, 20.8, i
O=C(C[C@@H]1C=C[C@@H](NC(=O)c2ccc3c(c2)OCO3)[C@H](CO)O1)NCc1ccc(Oc2ccccc2)cc1
    ., -1.5, ., 3.0, 2.3, 1.9, ., ., i
O=C(Cn1cncn1)N/N=C/c1cccnc1
    -5.1%, -1.2, -0.3, 14.1, 8.2, 1.2, ., -2.1, i
COc1ccc(C2=CC(=O)C[C@H](c3ccc(F)cc3)C2)cc1F
    ., 6.0, 2.9, -10.2, -21.3, -13.4, ., 2.1, i
Cc1c(C(=O)NCc2ccco2)sc2nc(-c3ccccc3)cn12
    -1.0%, 7.7, 1.2, -6.8, -21.4, 4.8, 0.718, -13.9, i
Cc1cc(NS(=O)(=O)c2ccc(NC(=O)c3ccc([N+](=O)[O-])cc3)cc2)nc(C)n1
    3.5%, 3.4, 2.2, 4.1, 11.9, 0.6, ., ., .
Cc1ccc(N(CC(=O)NCC2CCCO2)C(=O)CCC(=O)Nc2nccs2)cc1 (stereo not drawn)
    ., -7.3, 2.2, 2.5, 10.4, -0.9, 0.649, 0.6, i
CC(=O)Nc1cc(F)c2c(c1F)Cc1cc(F)ccc1-2
    3.1%, 4.4, 0.3, -13.2, -17.8, -4.2, 0.65, ., i
CCCC(=O)N1CC2(CN(C)C2)c2c(n(C)c3cc(OC)ccc23)[C@@H]1CO
    ., -0.4, ., 3.5, -0.8, -3.7, ., ., i
CCOC(=O)C1CCCN(S(=O)(=O)c2ccc3c(c2)N(C(C)=O)CCO3)C1 (stereo not drawn)
    6.8%, 0.0, -2.7, 4.7, 10.7, 0.9, 0.707, -10.8, i
O=C(/C(=C(/[O-])c1ccccc1)[n+]1ccccc1)c1ccc([N+](=O)[O-])cc1
    7.4%, -5.9, 1.4, -0.5, 4.5, -1.6, ., -0.5, i

Single entries from above.
Entry for `CCCc1ccc(Oc2c(-c3ccc(O)c(C)c3O)n[nH]c2C)cc1` under ALR H2O2 inh: 18.2
Entry for `O=C(Cn1cncn1)N/N=C/c1cccnc1` under AF4-AF9 inh: -1.2

Other entries follow:
Values in the order – Vif TR-FRET, AF4-AF9 inh, HNF4A DNA FP, rRNA inh HTS, rRNA inh HTS OD600, rRNA inh HTS RFP, E coli growth, ALR H2O2 inh, FGF22 binding
Cc1onc(-c2ccccc2)c1C(=O)NNC(=S)NC(=O)c1ccc(Cl)cc1Cl
    0.4%, ., -2.0, ., ., ., 0.699, 18.1, .
CCOn1c(-n2nc(C)cc2C)nc2ccccc2c1=O
    -10.2%, ., 2.0, ., ., ., 0.707, 7.3, .
CN(c1ccccc1)S(=O)(=O)c1ccc(Cl)nc1
    ?, 1.4, 0.9, -1.8, -10.1, -4.6, 0.709, ., i
CN(c1ccc(C(=O)Nc2ccccc2Sc2ccccc2)cc1)S(C)(=O)=O
    1.9%, ., -0.3, ., ., ., 0.745, 0.5, .
COc1ccc(S(=O)(=O)NC(CC(=O)N2CCc3ccccc32)c2ccco2)cc1 (stereo not drawn)
    1.9%, ., -1.2, ., ., ., 0.743, -8.5, .
Cc1cc(CCC(=O)O)c(C)cc1CCC(=O)O
    -0.3%, ., 1.5, ., ., ., 0.731, ., .
CC(=O)Nc1ccc(C2NC(=O)c3ccccc3O2)cc1 (stereo not drawn)
    1.0%, ., 4.6, ., ., ., 0.699, 35.9, .
CC(C)c1ccc(NC(=O)C(c2ccccc2)N(Cc2ccco2)C(=O)CC2NC(=O)NC2=O)cc1 (stereo not drawn)
    -2.2%, 2.9, 1.3, -7.8, -8.8, 29.7, 0.672, 8.3, i
C[C@H](CO)N1C[C@H](C)[C@@H](CN(C)C)Oc2c(NS(=O)(=O)c3ccccc3)cccc2C1=O
    ., -2.6&-32.6, 3.5, -0.4&5.0, 6.5&9.6, -2.0&4.9, ., -2.0, i
C[C@@H]1CCCCO[C@H](CN(C)C(=O)c2ccccc2)[C@@H](C)CN([C@H](C)CO)C(=O)c2cc(NC(=O)C3CCCCC3)ccc2O1
    ., -2.1, ., 0.3, -2.0, -1.4, ., ., i
C[C@@H]1CN([C@@H](C)CO)C(=O)c2cc(C#CCN(C)C)cnc2O[C@@H]1CN(C)Cc1ccc(-c2ccccc2)cc1
    ., 23.1, ., 4.6, -8.1, 19.3, ., ., i
CC1(C)OCC(CNC(=O)c2[nH]c(C(F)(F)F)nc2-c2ccccc2)O1 (stereo not drawn)
    ., -0.4, -2.8, 6.6, 3.8, -2.4, ., ., i
O=C(c1ccc(N2C(=O)c3ccccc3C2=O)cc1)N1CCCCC1
    1.2%, 1.6, 4.1, 7.5, 17.1, 2.3, 0.673, 8.2, i
Cc1c2c(cc3c1[nH]c1ccccc13)C=NCC2
    -14.1%, 0.3, 63.5*, -6.2, -22.5, -2.7, 0.575, ., i
CO[C@@H]1CN(C)C(=O)c2cc(NS(=O)(=O)c3ccccc3C)ccc2OC[C@@H](C)NC[C@@H]1C
    ., -2.6, ., 2.2, 2.5, 0.3, ., ., i
O=C(Cn1[nH]c(=O)c2ccccc2c1=O)OCC(=O)c1ccc(Br)cc1
    -5.8%, ?, 3.8, 10.8, 14.9, 1.3, 0.583, -27.0, i
COc1ccc(NC(=O)CCC(=O)c2cccs2)cc1Cl
    -6.0%, -1.1, -3.1, 14.1, 16.6, 0.0, 0.695, -3.3, i
Cc1cc2cc(CN(CC3CCCO3)C(=S)Nc3ccccc3)c(=O)[nH]c2cc1C (stereo not drawn)
    -14.0%, 2.9, 0.9, -1.6, -8.9, -1.0, ., -12.3, i
N#Cc1c(N)nc2c(c1N)CC(CCl)O2 (stereo not drawn)
    2.1%, ., -4.7, ., ., ., 0.703, -4.5, .
CC[C@@]12C(=O)N(c3cccc(F)c3)C(=O)N1[C@H](c1ccc(OC)cc1)[C@@H]1C(=O)N(C(C)(C)C)C(=O)[C@@H]12
    ., 1.9, -1.6, -0.3, -5.9, -7.0, ., -11.4, i
C/C(=N\NC(=O)c1ccc(O)cc1O)c1cccnc1
    ., 0.5, -1.0, 9.1, 12.4, 0.8, ., 68.1, i
CCOc1ncccc1C(=O)NNC(=O)c1ccc(NS(=O)(=O)c2cccs2)cc1
    0.4%, -2.2, 0.9, -4.2, -7.5, -2.2, 0.628, 0.6, i
COc1ccc(Cn2nnnc2C(CC(C)C)N2CCC(C(N)=O)CC2)cc1 (stereo not drawn)
    8.5%, -1.6, -3.7, 6.0, 4.8, -0.3, 0.679, -2.3, i
N#CC(C#N)=C1c2cc(S(=O)(=O)NCCO)ccc2-c2ccc(S(=O)(=O)NCCO)cc21
    5.3%, 8.6, -7.6, 8.4, 6.6, -5.9, 0.696, 2.2, i
CNC[C@H]1OCCCC[C@H](C)Oc2ccc(NS(C)(=O)=O)cc2C(=O)N([C@H](C)CO)C[C@@H]1C
    ., -4.5, ., 4.4, 6.0, -1.8, ., ., i
CCOc1ccc(NS(=O)(=O)c2c(C)nc3sc(CC)nn3c2=O)cc1
    ., -9.8, -0.5, 0.8, 3.0, 1.7, 0.762, ., i

These rows are one share of the data, so the mix of outcomes need not match the whole.
